# N370S GC: qHTS Assay for Inhibitors and Activators of N370S glucocerebrosidase as a Potential Chaperone Treatment of Gaucher Disease; AID 2101, 2009; Potency, µM (highest dose often 59.4 µM), for the others: top-dose activity change, negative = inhibition, usual class: inhibitors; 330,000 compounds, 0.092% hits; N370S GC spleen homogenate, 4MU-glucoside fluorescence;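 further: 0% = full enzyme activity and -100% = no enzyme basal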
# KAT2A inh: qHTS Assay for Inhibitors of GCN5L2; Histone acetyltransferase KAT2A (Homo sapiens), Q92830; 390,000 compounds, 0.21% hits; Potency, µM (highest dose often 58.9 µM), without a hit: top-dose activity change, negative = inhibition, most hits filed as inhibitors; AID 504327, 2011; GCN5L2 HAT assay, ThioGlo1 CoA-SH fluorescence
# Target sequence (Q92830 whole entry, looked up): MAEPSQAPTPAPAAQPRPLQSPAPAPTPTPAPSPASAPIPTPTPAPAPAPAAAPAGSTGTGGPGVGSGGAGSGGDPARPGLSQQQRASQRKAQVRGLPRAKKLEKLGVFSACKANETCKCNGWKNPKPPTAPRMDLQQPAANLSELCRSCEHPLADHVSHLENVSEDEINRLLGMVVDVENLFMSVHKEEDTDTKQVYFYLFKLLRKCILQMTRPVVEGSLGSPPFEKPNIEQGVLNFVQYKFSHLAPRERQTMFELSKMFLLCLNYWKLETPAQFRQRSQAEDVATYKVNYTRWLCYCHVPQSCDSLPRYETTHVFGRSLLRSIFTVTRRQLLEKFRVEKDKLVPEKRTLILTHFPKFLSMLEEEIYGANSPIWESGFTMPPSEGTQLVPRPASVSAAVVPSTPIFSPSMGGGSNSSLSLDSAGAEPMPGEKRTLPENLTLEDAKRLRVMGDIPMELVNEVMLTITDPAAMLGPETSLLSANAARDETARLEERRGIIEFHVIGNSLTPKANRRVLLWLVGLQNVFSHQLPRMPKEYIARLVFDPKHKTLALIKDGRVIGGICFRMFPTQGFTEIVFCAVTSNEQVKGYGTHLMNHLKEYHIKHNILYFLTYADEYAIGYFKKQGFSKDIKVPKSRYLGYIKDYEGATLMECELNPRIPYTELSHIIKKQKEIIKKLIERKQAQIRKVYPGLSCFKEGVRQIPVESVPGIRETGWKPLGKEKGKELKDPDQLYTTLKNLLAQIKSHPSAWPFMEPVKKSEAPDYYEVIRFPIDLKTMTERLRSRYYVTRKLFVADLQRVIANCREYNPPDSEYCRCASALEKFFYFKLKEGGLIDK
#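 Preincubate 20nM GCN5L2 with compound 15 min, RT → add 50uM ThioGlo1 + 75uM H3(1-25) + 70uM acetyl-CoA → read fluorescence 0 and 20 min. Primary qHTS; fluorescent artifacts likely.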
# The depositor's hits bear a star; ? = inconclusive; · = not tested or not shown; & = joins results of further samples; [ ] = remark or other dose. The call rests on the fitted dose curve; in most records, active means well fitted curve in the direction sought with a large enough effect; inconclusive means small, poorly fitted or top-dose-only effect, or another doubt; inactive means no such curve, though single readings can be large; an effect the other way counts as inactive or inconclusive. Unless noted, on the % scale 0 is the no-effect control and ±100 the full control effect; potency means the concentration at half of the fitted maximal effect. The list is partial, and most or all hits are left out here.
SMILES,N370S GC,KAT2A inh
CCC(=O)N1CCc2cc(S(=O)(=O)CCC(=O)NCCC3=CCCCC3)ccc21,-7.3%,-3.2%
Cc1ccc(CNC(=O)CCS(=O)(=O)c2ccc3c(c2)CC(C)N3C(=O)C2CC2)cc1 (stereo not given),-26.9%,-3.2%&-1.0%
Cc1ccc(C2CC(=O)C=C(O)C2)cc1 (stereo not given),3.2%,-5.1%
COc1ccc(Oc2cc(C(F)(F)F)cnc2C(N)=O)cc1,-18.4%,1.8%
CCC(CC)c1nnc(NC(=O)C2CC(=O)N(CCc3ccc(OC)c(OC)c3)C2)s1 (stereo not given),-6.0%,-9.4%
CC(C)=CC(=O)OCC(=O)Nc1ccc(Cl)cc1,6.0%,34.6%[activator]
Cc1cccc(OCC(=O)NC(=S)Nc2ccccc2N2CCOCC2)c1,-0.7%,-7.3%
Cc1ccc(N(C(=O)CNC(=O)c2ccco2)C(C(=O)NC2CCCC2)c2ccncc2)cc1C (stereo not given),-11.1%,-2.5%
CCC(=O)Nc1nnc(C(C)(C)C)s1,-8.9%,27.7%
CCOC(=O)C1=C(C)NC(C)=C(C(=O)OCC)C1C(=O)OCC(=O)N1CCCCC1CC (stereo not given),-2.9%,2.0%
CCSc1nc(-c2ccccc2)c(-c2ccccc2)n1CC(O)CO (stereo not given),5.5%,-15.9%
COc1cc(CNCc2ccco2)cc(OC)c1O,1.1%,-2.4%
Cc1ccccc1C(=O)c1c[nH]c(C(=O)NCc2cccs2)c1,-19.5%,-3.9%
COc1cc(C(=O)NCc2nnc(SCC(=O)Nc3ccc4c(c3)OCO4)o2)cc(OC)c1OC,-16.3%,-4.5%
Cc1ccc[n+](CC(=O)c2ccc(Cl)cc2)c1,-5.3%,-0.1%
CCOc1ccc(C(=O)NC(=S)Nc2ccc(NC(=O)c3ccco3)c(C)c2)cc1[N+](=O)[O-],-4.9%,11.8%
CCc1ccc(CNC(=O)Cn2nc(-c3ccc(C)cc3)ccc2=O)cc1,-16.8%,-6.8%&-5.5%
CCOC(=O)c1nn(-c2ccccc2)c2nnc(Cc3ccc(Cl)cc3)c(=O)n12,14.7%,0.9%
COCCCNC(=O)c1c(N)n(/N=C/c2ccccn2)c2nc3ccccc3nc12,2.1%,22.6%
CCC(C)NC(=O)c1cnc2n(c1=O)CCS2 (stereo not given),6.4%,-5.7%
COc1ccccc1NC(=O)Nc1cccc(C)n1,23.0%,-11.0%
CCOC(=O)c1c(N)n(CCOC(=O)c2cccs2)c2nc3ccccc3nc12,?,-15.1%
COC(=O)c1ccc(COC(=O)C(CCS(C)(=O)=O)N2C(=O)c3ccccc3C2=O)cc1 (stereo not given),12.1%,31.4%[activator]
Cc1ccccc1N/C(=N/S(=O)(=O)c1ccccc1)c1ccc(F)cc1,-4.1%,-1.3%
CCOc1ccc(/C=N/NC(=O)c2ccc(O)cc2)cc1CN1CC2CC(C1)c1cccc(=O)n1C2 (stereo not given),·,-3.8%
SMILES,N370S GC,KAT2A inh
NS(=O)(=O)c1ccc(CNS(=O)(=O)c2cc(Cl)ccc2Cl)cc1,-3.2%,-3.5%
Cc1ccccc1C(=O)NCC(=O)O,-5.8%,0.4%
CN(C)c1ccc(N=Cc2cccn2C)cc1,-10.2%,-3.4%
Cc1cc(=O)oc(C)c1C(=O)Nc1cccc2ccccc12,19.9%,0.0%
COc1ccc(CCNC(=O)C(C)OC(=O)c2ccco2)cc1OC (stereo not given),·,-9.7%
Cc1ccc(SCc2[nH]nc3c2C2(C(=O)Nc4ccc(F)cc42)C(C#N)=C(N)O3)cc1 (stereo not given),-7.5%,-3.3%
COc1cc(C(=O)Nc2ccc(NC(=O)C3CCCCC3)nc2)cc(OC)c1OC,-28.7%,-8.9%
Cc1ccc(S(N)(=O)=O)cc1,0.5%,-20.7%
Cc1cc(C(=O)COC(=O)c2cccc(NS(C)(=O)=O)c2)c(C)n1CC1CCCO1 (stereo not given),·,-2.0%
Cc1cc(Cl)ccc1NC(=O)C(=O)NCc1ccco1,·,-3.1%
COc1ccc2oc(C(=O)OCC(=O)N3CCN(C(C)=O)CC3)c(C)c2c1,-0.6%,0.4%
COC(=O)N/N=C/c1cc(N=Nc2ccccc2Cl)ccc1O,10.7%,-10.8%
Clc1c(-c2nnc3n2CCCCC3)sc2ccccc12,-15.2%,0.2%
CC1(C)C=C(c2ccc(C=O)s2)CC(C)(C)N1,-2.2%,-1.2%
Cn1cc(CNC(=O)C2CCC(=O)N(Cc3cccc(C(F)(F)F)c3)C2)cn1 (stereo not given),-15.9%,2.4%
O=C1CCCC(=O)C1C(=O)C1CCN(S(=O)(=O)c2ccccc2)CC1,13.3%,-0.1%
Cc1ccc(C(=O)CSc2nc3ccccc3c(=O)[nH]2)cc1,6.7%,1.1%
CCCCCCNS(=O)(=O)c1ccc(NC(=O)C2CCCO2)cc1 (stereo not given),-11.9%,-1.4%
CN1C(=O)/C(=C/c2cc(C(C)(C)C)c(O)c(C(C)(C)C)c2)NC1=S,1.5%,-7.9%
CCSC(C)CC1C/C(=N/O)c2c(C)noc2C1 (stereo not given),-29.6%,?
CCN(CC)CCNC(=O)Cn1cnc2sc(C)c(S(=O)(=O)N3CCN(c4ncccn4)CC3)c2c1=O,-0.5%,-6.0%
COc1cccc(NC(=O)CN(C)C(=O)c2ccccn2)c1,·,0.3%
COc1ccccc1/C=N/NC(=O)c1nnn(-c2nonc2N)c1-c1cccs1,28.0%,-6.6%
CC(=O)Nc1ccc(S(=O)(=O)NCCc2csc(C)n2)cc1,1.9%,-5.3%
O=C(CCCn1c(SCC(=O)NCCc2ccccc2)nc2ccccc2c1=O)NCC1CCCO1 (stereo not given),6.9%,-6.4%

# Sorted by count of non-hydrogen atoms (rising): part of the list above.
SMILES,N370S GC,KAT2A inh
CCC(=O)Nc1nnc(C(C)(C)C)s1,-8.9%,27.7%
Cc1ccc[n+](CC(=O)c2ccc(Cl)cc2)c1,-5.3%,-0.1%
CC(C)=CC(=O)OCC(=O)Nc1ccc(Cl)cc1,6.0%,34.6%[activator]
COc1ccc(Oc2cc(C(F)(F)F)cnc2C(N)=O)cc1,-18.4%,1.8%
NS(=O)(=O)c1ccc(CNS(=O)(=O)c2cc(Cl)ccc2Cl)cc1,-3.2%,-3.5%
Cc1ccccc1N/C(=N/S(=O)(=O)c1ccccc1)c1ccc(F)cc1,-4.1%,-1.3%
Cc1cccc(OCC(=O)NC(=S)Nc2ccccc2N2CCOCC2)c1,-0.7%,-7.3%
CCC(=O)N1CCc2cc(S(=O)(=O)CCC(=O)NCCC3=CCCCC3)ccc21,-7.3%,-3.2%
COCCCNC(=O)c1c(N)n(/N=C/c2ccccn2)c2nc3ccccc3nc12,2.1%,22.6%
Cc1ccc(SCc2[nH]nc3c2C2(C(=O)Nc4ccc(F)cc42)C(C#N)=C(N)O3)cc1 (stereo not given),-7.5%,-3.3%
Cc1ccc(N(C(=O)CNC(=O)c2ccco2)C(C(=O)NC2CCCC2)c2ccncc2)cc1C (stereo not given),-11.1%,-2.5%
CCOc1ccc(/C=N/NC(=O)c2ccc(O)cc2)cc1CN1CC2CC(C1)c1cccc(=O)n1C2 (stereo not given),·,-3.8%
CCN(CC)CCNC(=O)Cn1cnc2sc(C)c(S(=O)(=O)N3CCN(c4ncccn4)CC3)c2c1=O,-0.5%,-6.0%

# Continued:
SMILES,N370S GC,KAT2A inh
O=C(c1cc2ccccc2oc1=O)N(Cc1ccccc1)C1CCS(=O)(=O)C1 (stereo not given),-0.4%,?
CN(c1ccccc1)S(=O)(=O)c1ccc(C(=O)OCC(=O)NCc2cccs2)cc1,3.8%,17.1%
CC(C)CNC(=O)[C@H](Cc1ccccc1)NC(=O)c1cccs1,3.0%,-1.2%
CC[N+](C)(C)c1cccc(O)c1,3.8%,-16.1%
COc1ccccc1-c1noc(-c2ccc(NC3CCCCC3)c([N+](=O)[O-])c2)n1,·,-2.4%
CC(NC(=O)c1ccc(OC2CCN(S(=O)(=O)N(C)C)CC2)cc1)C1CC1 (stereo not given),-5.3%,-2.2%
Cc1cccc(/C=N/NC(=O)c2ccc(NC(=O)c3ccc(F)cc3)cc2)n1,-5.8%,-4.9%
CCOC(=O)c1c(NC(=O)C(C)Sc2cn(C)c3ccccc23)sc2c1CCC2 (stereo not given),7.7%,-10.5%
C=CCOC(=O)COc1ccc2c(C)c(CC)c(=O)oc2c1,15.0%,-2.7%
O=C(COC(=O)c1cccnc1Cl)c1ccc(OC(F)F)cc1,-7.2%,-1.8%
CCn1c(=O)c2ccccc2n(Cc2ccccc2C)c1=O,-3.3%,1.3%
O=C(CSc1nc2c(oc3ccccc32)c(=O)n1Cc1ccco1)Nc1ccccc1,·,-0.9%
COC(=O)c1ccccc1NC(=O)CN1CCN(C23CC4CC(CC(C4)C2)C3)CC1,-1.7%,-6.8%
CN1C(=O)C(O)(CC(=O)c2ccc3c(c2)OCO3)c2ccccc21 (stereo not given),0.0%,-1.7%
Clc1ccc2nc(C3CCN(Cc4nnnn4C4CCCCC4)CC3)[nH]c2c1,-0.9%,-1.7%
COc1cccc(CC(=O)Nc2cc(C(F)(F)F)ccc2N2CCCC2)c1,26.7%,-0.6%
COc1ccc(CCNC(=O)CCc2c(C)c3cc4c(C)c(C)oc4cc3oc2=O)cc1OC,·,-20.4%
Cc1cc(OCC(=O)NCCc2ccc(S(N)(=O)=O)cc2)c2c(C)c(C)c(=O)oc2c1,-0.7%,-8.9%
CCOC(=O)C1=C(C)S/C(=C\N(C)C)C1=O,1.8%,-17.5%
Cc1nc(N2CCOCC2)nc(N2CCCCC2C)c1[N+](=O)[O-] (stereo not given),22.2%,1.3%
O=C(CSc1nnnn1-c1ccc(C(=O)O)cc1)NC1CC1,-2.6%,-1.5%
Cc1ccc(C)c(N(C)S(=O)(=O)c2cccc3nsnc23)c1,2.4%,1.4%
O=C(Nc1cccc(Cl)c1)N(CCCN1CCOCC1)Cc1ccccc1F,?,-1.2%
O=C(/C=C/c1ccccc1[N+](=O)[O-])NNC(=O)c1ccncc1,·,-18.8%
COc1cc(OC)c(CNC2CCCCCC2)cc1Br,-0.3%,-2.5%
SMILES,N370S GC,KAT2A inh
Cc1cccc(N2C(=O)CSC23C(=O)N(CC(=O)NCc2ccccc2Cl)c2ccccc23)c1 (stereo not given),·,-25.2%
Cn1c(=O)cc(OCC(=O)N2CCN(c3ccccc3)CC2)c2ccccc21,·,2.4%
CN(CC(=O)NCCc1ccc(F)cc1)Cc1cccs1,-3.6%,-1.3%
O=C(N/N=C/c1ccc(O)c(O)c1)C1c2ccccc2Oc2ccccc21,-4.4%,-1.6%
COc1ccc(N2CCN(S(=O)(=O)CCNC(=O)c3ccc4c(c3)OCO4)CC2)cc1,-12.7%,-4.8%
O=C(CSc1nc2[nH]ncc2c(=O)[nH]1)NCCc1ccccc1,-6.8%,-1.9%
O=C(O)C1CCCCC1C(=O)Nc1ccc(S(=O)(=O)N2CCCCCC2)cc1 (stereo not given),-3.7%,-1.8%
O=C(NCc1ccccc1Cl)C1CCC(=O)N(CC2CCCCC2)C1 (stereo not given),-10.0%,-8.3%
CC(C)(C)c1ccc(C(=O)NC2(C(F)(F)F)C(=O)Nc3c2c(=O)[nH]c(=O)n3-c2ccccc2)cc1 (stereo not given),·,-1.9%
COc1ccc(S(=O)(=O)N2CCOCC2)cc1NC(=O)COc1ccc2c(C)cc(=O)oc2c1,·,0.1%
O=C(Cn1c(=O)oc2ccccc21)NCCc1ccccc1,1.5%,12.4%
COc1ccc(NC(=S)NC(=O)/C=C/c2cccs2)cc1,-1.2%,-4.7%
COc1ccc(Cl)cc1NC(=O)CN(C)S(=O)(=O)c1ccc(Br)s1,·,-9.0%
Cc1cccc(NC(=O)NC2COc3ccccc3C2)c1C (stereo not given),·,-8.3%
CCOC(=O)CSC1=C(C#N)C(c2sccc2C)C(C(C)=O)=C(C)N1 (stereo not given),7.8%,-5.6%
CN1CCN(/N=C/c2ccc(-c3ccc([N+](=O)[O-])cc3Cl)o2)CC1,-22.4%,-11.3%
CC(C)(C)NS(=O)(=O)c1ccc(CCC(=O)O)cc1,-2.9%,1.3%
O=C(CSc1nc2c(c(=O)[nH]1)CCC2)Nc1cc(C(F)(F)F)ccc1Cl,·,-9.5%
Cc1noc(C)c1COc1ccccc1C(=O)N1CCN(S(=O)(=O)c2cccc(Cl)c2)CC1,-1.1%,3.4%
O=C(CSc1ncnc2ccccc12)Nc1ccc2c(c1)OCCO2,14.7%,2.2%
CCCCOc1ccc(C(O)C(CN2CCOCC2)c2ccccc2)cc1 (stereo not given),-18.7%,1.4%
Cc1cc(C)cc(OC(=O)CS(=O)c2ccc(C(F)(F)F)cc2[N+](=O)[O-])c1 (stereo not given),5.0%,-9.1%
CCOC(=O)C1CCN(S(=O)(=O)c2ccc(-c3nc4ccccc4s3)s2)CC1,7.1%,0.0%
COc1ccc(Cl)c(NC(=O)Cn2nnc(-c3ccccc3N)n2)c1,2.5%,-5.5%
CN(C)c1ccc(CN2CCC(C(N)=O)CC2)cc1,2.1%,-10.8%
SMILES,N370S GC,KAT2A inh
O=[N+]([O-])c1ccc(N2CCSCC2)cc1O,-12.3%,-2.5%
CN(c1cccc(NC(=O)Cc2ccccc2)c1)S(C)(=O)=O,12.7%,-0.5%
CC1CCCCN1c1nc2nonc2nc1N1CCCCC1C (stereo not given),1.8%,-6.8%
CCOC(=O)/C(C#N)=C/Nc1cc(F)ccc1C,3.9%,-8.0%
CC1CCCCN1S(=O)(=O)c1ccccc1[N+](=O)[O-] (stereo not given),-2.3%,-2.9%
CC(C)c1onc(C(=O)N2CCC(C(N)=O)CC2)c1[N+](=O)[O-],1.5%,-4.8%

# Compound activity: PubChem, National Center for Advancing Translational Sciences (NCATS)
